VDR inh – Inhibitors of the vitamin D receptor (VDR): qHTS; 400,000 compounds, 0.93% hits; Vitamin D3 receptor (Homo sapiens), P11473; VDR-SRC2-3 peptide fluorescence polarization, 2 h; Potency, µM, inactives show max response, negative = inhibition, actives largely listed as inhibitors; active means well fitted inhibition curve with a large enough effect; inconclusive means small, poorly fitted or top-dose-only effect, or another doubt; inactive means no such curve, though single readings can be large or run the other way; further: series mostly up to about 120 µM
Target sequence (P11473 whole entry, looked up): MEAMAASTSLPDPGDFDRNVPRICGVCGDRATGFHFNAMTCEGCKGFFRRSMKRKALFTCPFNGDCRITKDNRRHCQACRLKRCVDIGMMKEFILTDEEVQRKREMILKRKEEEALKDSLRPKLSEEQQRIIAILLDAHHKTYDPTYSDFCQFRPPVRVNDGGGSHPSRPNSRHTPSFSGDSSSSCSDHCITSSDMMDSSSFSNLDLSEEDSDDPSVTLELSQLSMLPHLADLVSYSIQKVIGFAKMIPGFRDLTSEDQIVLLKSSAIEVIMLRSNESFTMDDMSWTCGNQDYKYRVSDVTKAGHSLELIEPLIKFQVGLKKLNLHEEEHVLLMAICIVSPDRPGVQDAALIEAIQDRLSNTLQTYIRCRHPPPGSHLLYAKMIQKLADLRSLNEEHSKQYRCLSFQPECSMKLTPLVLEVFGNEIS
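Reagent solutions, kept cold and dark, are dispensed first; compounds are then pinned in at 23 nl, plates briefly spun, and incubated 2 h at ambient temperature. Inhibition of VDR–SRC2-3 peptide binding is read by fluorescence polarization.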
Numbers without * were called inactive; ? = inconclusive; & = joins results of further samples. On the % scale 0 is the no-effect control and ±100 the full control effect; potency means the concentration at half of the fitted maximal effect.

SMILES | VDR inh
O=C(c1cccc(-n2cccc2)c1)N1CCN(S(=O)(=O)c2ccc(F)cc2)CC1 | 1.5%
COc1cccc(-c2ccc3nnc(SCC(=O)N4CCCC4)n3n2)c1 | 5.0%
CC(C)NS(=O)(=O)c1ccc2nc(NC(=O)c3cncc(Br)c3)sc2c1 | 7.8%
Cc1ccccc1-n1c(C)nnc1SCc1nc2ccccc2s1 | -5.4%
CC(=O)n1cc(CO)c2ccccc21 | -2.1%
CC(C)c1ccccc1OCCCN1CCCC1 | -9.4%
O=C(O)/C=C/C(=O)NCCNc1ncc(C(F)(F)F)cc1Cl | 10.1%
CCC(=O)N1CCc2cc(S(=O)(=O)CCC(=O)Nc3cc(Cl)ccc3OC)ccc21 | -25.5%
CC1=C(c2ccc(F)cc2)[N+](=O)C(C)(C)N1[O-] | 1.5%
O=C(c1ccc2c(=O)n(Cc3ccco3)c(=S)[nH]c2c1)N1CCCC1 | -15.6%
CC(C)n1c(CSCc2ccc(Cl)cc2Cl)n[nH]c1=S | -12.5%
COc1cccc2c1CCC1CC(=O)CC[C@@]21C (stereo partly drawn) | -2.2%
COc1ccc(CC(=O)Nc2ncc([N+](=O)[O-])s2)cc1OC | ?
O=S(=O)(c1ccc(N2CCOCC2)c(Cl)c1)N1CCOCC1 | -4.4%
Cc1cc(C)c2c(-n3cccc3)c(C(=O)NCCCN3CCCCC3)sc2n1 | 2.3%
CC(C)=NOc1nc(NC(=O)NS(=O)(=O)c2ccccc2Cl)nc(N(C)C)n1 | -5.8%
Cc1nn(CC(=O)N(C)Cc2ccc(F)cc2)c(C)c1[N+](=O)[O-] | -4.7%
CC1CCN(C(=O)COc2cccc3c2CCN(C)C3=O)CC1 | 12.6%
CN1CCc2nc3ccc(Cl)cc3c(-c3ccccc3Cl)c2C1 | -19.2%
C/C(=N/NC(=O)c1ccccc1O)c1ccc(N2C(=O)C3CCCCC3C2=O)cc1 (stereo not drawn) | 9.5%
Cc1nn(CC(=O)N2CCN(c3ccccc3)CC2)c(=O)c2cccn12 | 2.9%&12.7%
COc1ccc(C(=O)N2CCCC(CCC(=O)NCc3ccc(F)c(F)c3)C2)o1 (stereo not drawn) | ?
CCOC(=O)N1CCN(C(=O)C2CCC(CNS(=O)(=O)c3ccc(Cl)cc3)CC2)CC1 (stereo not drawn) | -3.1%
CCOc1ccc(N(C(=O)/C=C/C(=O)Nc2cc(C)on2)C(C(=O)NC2CCCC2)c2ccccc2C)cc1 (stereo not drawn) | 1.2%
COc1ccc(-c2nc(CSCC(=O)N3CCN(c4ccccc4)CC3)c(C)o2)cc1 | 2.4%
CC(=O)Nc1cccc(OCC(O)Cn2c(C)nc3ccccc32)c1 (stereo not drawn) | -13.2%
CCN(CC(=O)Nc1ccc(OC)cc1)C(=O)Cc1ccc(OC)c(S(=O)(=O)N2CCOCC2)c1 | 4.2%
NS(=O)(=O)c1ccc(NC(=O)c2cc(-c3cc(Cl)ccc3O)n[nH]2)cc1 | -0.1%
CCN(C(=O)COc1ccc(C)cc1OC)c1cccc2ccccc12 | 2.0%
CN(C(=O)COC(=O)c1ccc2c(c1)OCCO2)C1CCCCC1 | -11.2%
COc1ccc(C(=O)NCC(c2ccco2)N2CCc3ccccc32)cc1OC (stereo not drawn) | -8.1%
COCCn1c(C)cc2c(c1=O)C(c1ccccc1F)C(C#N)=C(N)O2 (stereo not drawn) | 7.5%
COC(=O)c1ccc(NC(=O)Cn2nnc3ccccc32)cc1 | 17.7%
Oc1ccc(N=Nc2ccccc2)o1 | 89.1µM*
CCc1cnc2c(c1SCC(=O)c1ccc(OC)cc1)c(=O)n(C)c(=O)n2C | 14.3%
O=C(NNCc1ccccc1)c1ccccc1 | -14.9%

Structures above with an NH in an aromatic ring:
SMILES | VDR inh
O=C(c1ccc2c(=O)n(Cc3ccco3)c(=S)[nH]c2c1)N1CCCC1 | -15.6%
CC(C)n1c(CSCc2ccc(Cl)cc2Cl)n[nH]c1=S | -12.5%
NS(=O)(=O)c1ccc(NC(=O)c2cc(-c3cc(Cl)ccc3O)n[nH]2)cc1 | -0.1%

(cont.)
SMILES | VDR inh
Cc1noc(-c2ccccc2)c1NC(=O)Nc1ccc(Cl)cc1 | 0.2%
CN1CCN(c2ccc(NC(=O)COc3cccc4ccccc34)cc2)CC1 | -22.4%
Cc1ccc2c(Cl)cc(Cl)c(OCC(=O)N3CCCC3)c2n1 | -25.3%
CCN(CC)c1ccc2cc(-c3nc(-c4ccccc4)no3)c(=O)oc2c1 | 6.2%
O=C(CCn1cnc2ccccc21)N/N=C/C=C/c1ccccc1 | -8.7%
CC1CN(c2sc(S(C)(=O)=O)nc2S(=O)(=O)c2ccc(Cl)cc2)CC(C)O1 (stereo not drawn) | -14.6%
Cc1ccccc1N1CC(=O)N(c2ccccc2C)CC1=O | -2.0%
COc1ccc(OC)c(CNC(=O)CCCc2cn(C)c3ccccc23)c1 | 10.9%
Cc1ccc(S(=O)(=O)N(C)c2ccc(OCC(=O)N3CCCCC3)cc2)cc1 | 1.0%
c1ccc(-c2noc(-c3ccc4ccccc4c3)n2)nc1 | -4.5%
COc1ccc(C(=O)/C=C/Nc2ccc(S(=O)(=O)Nc3onc(C)c3C)cc2)cc1 | -17.6%
Cc1cc(C(=O)Nc2ccc(Cl)c(S(=O)(=O)N3CCOCC3)c2)c2ccccc2n1 | -11.1%
CC1CC(NC(=O)N(C)C)N(C)C(=O)N1 (stereo not drawn) | -5.1%
CCOCCn1c(=NC(=O)CSCC(=O)N2CCOCC2)sc2cc(OC)ccc21 | 13.1%
COc1ccc(Cl)cc1C(=O)NNC(=O)c1cccs1 | 5.4%
CC(C)CN1C(=O)C(=Nc2cccnc2)c2ccccc21 | -12.6%
COc1cccc(/C=N/NC(=O)CNC(=O)c2ccncc2)c1O | 10.5%
Cc1ccc(NC(=O)CNC(c2ccccc2)c2ccccc2)c(F)c1 | -4.5%
COc1ccc(-c2nn(-c3ccccc3)cc2C(=O)Nc2cccc(S(=O)(=O)NC3=NCCC3)c2)cc1 | 12.5%
O=C(Cc1cccs1)Nc1nc2c(ccc3ccccc32)s1 | -5.1%
CCOc1ccc(C(=O)N(c2ccccn2)C2CCCCC2)cc1 | 8.7%
CN(C)C1(CNC(=O)C2CCN(S(=O)(=O)c3ccccc3C(F)(F)F)CC2)CCCCC1 | -16.5%
COc1ccccc1NC(=O)CSc1nc2c(oc3ccccc32)c(=O)n1C | 13.0%
Cc1ccc2c3c(c(SCC(=O)Nc4nonc4C)nc2c1)CCCC3 | 6.5%

Reprinted at random: five compounds from above
SMILES | VDR inh
Cc1ccc(S(=O)(=O)N(C)c2ccc(OCC(=O)N3CCCCC3)cc2)cc1 | 1.0%
COc1ccc(-c2nn(-c3ccccc3)cc2C(=O)Nc2cccc(S(=O)(=O)NC3=NCCC3)c2)cc1 | 12.5%
Cc1ccc2c(Cl)cc(Cl)c(OCC(=O)N3CCCC3)c2n1 | -25.3%
Cc1noc(-c2ccccc2)c1NC(=O)Nc1ccc(Cl)cc1 | 0.2%
COc1ccc(C(=O)/C=C/Nc2ccc(S(=O)(=O)Nc3onc(C)c3C)cc2)cc1 | -17.6%

Next structures.
SMILES | VDR inh
O=C(CCNC(=O)c1ccco1)Nc1ccccc1 | -3.7%
Cc1nc(NC(=O)C(C)Oc2cccc(Cl)c2)sc1C(=O)N(C)C (stereo not drawn) | 0.5%
C=CCNC1=C(Cl)C(=O)N(Cc2ccccc2)C1=O | 14.7%
CC(C)(C)C(=O)/C=c1\[nH]c(=O)/c(=C\c2ccc(C#N)cc2)s1 | -4.3%
O=C(O)c1cc(S(=O)(=O)N2CCN(c3ccccn3)CC2)ccc1Cl | 12.4%
Cc1cccc(CNc2ncncc2-c2ccccc2C)c1 | ?
COc1ccc(CN(C2CC2)S(=O)(=O)c2ccccc2Br)cc1 | -5.1%
CCCC(=O)N1CC(=O)Nc2ccc(C)cc2C1c1ccccc1 (stereo not drawn) | -12.7%
Cc1ccc(S(=O)(=O)Nc2cccc3c2O[C@H](CN(C)Cc2ccccc2)[C@@H](C)CN([C@H](C)CO)C3=O)cc1 | -17.7%
CCc1cccc(C)c1NC(=O)C(C)Sc1nc2c(c(=O)[nH]1)CCCC2 (stereo not drawn) | 9.6%
COc1ccccc1OCCC(=O)NNC(=O)c1ccccc1F | 5.7%
CCc1cc2ccc(OC)cc2nc1SCC(=O)Nc1cc(C)on1 | -2.6%
COc1ccccc1OCC(=O)Nc1ccc(S(=O)(=O)N2CCOCC2)cc1 | 5.1%
CCOC(=O)Cc1nnc(NC(=O)CSc2ccc(Cl)cc2)s1 | -9.3%
CNc1nccc(-c2ccc(Cl)cc2)c1C#N | -1.9%
C=CCC(CC=C)(NC(=O)c1ccccc1)c1ccccc1 | 8.1%
CCOC(=O)C1=C(C)N(c2ccccc2)C(=O)/C1=C\c1ccco1 | -25.9%
S=C(NC1CCCC1)N1CCN(c2ccc(Cl)cc2)CC1 | 2.2%
COCCOC(=O)C1=C(C)N(c2ccccc2)C(=S)NC1c1ccccc1C(F)(F)F (stereo not drawn) | -7.2%
CC(=O)NC(c1cccs1)c1cc(Cl)c2ccccc2c1O (stereo not drawn) | -6.0%
Cc1ccc(S(=O)(=O)c2c(C)cc(C)nc2Oc2cccc(C(F)(F)F)c2)cc1 | -8.2%
Cc1c(C(=O)NC(=S)NCc2cccnc2)oc2ccccc12 | 12.7%
CCc1nnc(NC(=O)c2ccc(S(=O)(=O)N(CC)Cc3ccccc3)cc2)o1 | -20.2%
C(=C\c1ccco1)/C1=NN(c2ccccc2)C(c2ccco2)C1 (stereo not drawn) | -26.9%
Cc1ccc(NC(=O)[C@@H](C)NC(=O)[C@@H]2Cc3ccccc3CN2)cc1 | -0.5%
COc1ccc(C2/C=C\CN(S(=O)(=O)c3cccs3)CC(=O)N2Cc2ccc(F)cc2)cc1 (stereo not drawn) | -23.8%&-9.1%
c1ccc(-c2nc3cc4ccccc4cc3[nH]2)nc1 | -12.4%
CCN(CC)C(=O)CSc1nc(O)c(Cc2ccccc2)c(=O)n1-c1ccccc1 | -2.0%
COc1ccc(C(CNC(=O)COc2ccccc2-c2ccccc2)N2CCOCC2)cc1 (stereo not drawn) | -2.8%
CC[C@]12c3[nH]c4ccc(OC)cc4c3CCN1C(=O)C(CC(=O)NCCCn1ccnc1)C[C@@H]2C(=O)N1CCN(C(=O)c2ccco2)CC1 (stereo partly drawn) | -2.8%
Cc1nnc(N(C)C(=O)c2ccccn2)s1 | -10.1%
Cn1c(=O)cc(SCC(=O)Nc2ccccn2)c2ccccc21 | -5.0%
C=CCc1cc(OC)ccc1OCC(O)CN1CCN(c2ccc(OC)cc2)CC1 (stereo not drawn) | 0.6%&-11.1%
Nc1c(S(=O)(=O)O)cc(NC(=O)c2ccccc2)c2c1C(=O)c1ccccc1C2=O | ?
CCc1cc(=O)[nH]c(SCC(=O)Nc2cc(C)on2)n1 | -10.4%
Fc1ccc(Nc2c3c(nc4nncn24)CCC3)cc1 | -4.6%
Cc1cccc(C(=O)Nc2ccc(-c3nc4ccccc4s3)c(C)c2)c1 | 6.5%
Cn1c2c(c(=O)n(C)c1=O)C(c1ccccc1Cl)CC(=O)N2 (stereo not drawn) | -8.6%
COc1ccc(/C=C2\CCn3c2nc2cc(C(=O)O)ccc2c3=O)cc1O | -13.1%
CC(C)OCCCn1c(=N)c(S(=O)(=O)c2ccccc2)cc2c(=O)n3ccccc3nc21 | -13.8%
C=CCNc1nc(-c2cccs2)c(CC(=O)O)s1 | -11.3%
Oc1ccc(NCc2ccccc2OCc2ccc(Cl)cc2)cc1 | ?
CCCCNC(c1ccccc1)c1ccncc1 (stereo not drawn) | 15.8%
Cc1ccc(-n2ccnc(NCc3ccccc3)c2=O)cc1C | 5.7%
Cc1ccc(N(C(=O)CCC(=O)Nc2nccs2)C(C(=O)NC(C)(C)C)c2ccc(O)cc2)cc1 (stereo not drawn) | -23.7%
CN(C)C(=O)CN(c1ccc2c(c1)OCO2)S(C)(=O)=O | -1.4%
COc1ccc(CCNC(=O)c2ccc(Nc3nc4ccccc4n4nnnc34)cc2)cc1OC | -5.5%
Cc1nn(C2CCS(=O)(=O)C2)c(C)c1CN(C)C(=O)c1ccccc1 (stereo not drawn) | -12.9%
CCOC(=O)Nc1nc(-c2ccc(F)cc2F)cs1 | 16.0%
COc1ccc(/C=C2\SC(=S)N(CCCC(=O)NC3CCCC3)C2=O)cc1OC | -6.8%
Cc1ccc(OCC(=O)Nc2ccc(Cl)c(-c3nc4ncccc4o3)c2)c(C)c1 | 18.0%
O=C(CCc1nc(-c2ccccn2)no1)NCc1ccc2c(c1)OCO2 | 0.5%
C=CCN1C(=O)CN=C1Nc1cc(C)cc(C)c1 | 6.5%
Cc1ccc(C(=O)N2CCN(c3ccc([N+](=O)[O-])cc3-n3cccc3)CC2)cc1 | ?
CC12CC3(C)CC(C)(C1)CC(C(N)=O)(C2)C3 | 13.4%
COc1cccc(-c2csc3nnc(SCC(=O)c4ccc(NC(C)=O)cc4)n23)c1 | 7.1%
O=C(c1ccc(F)cc1)c1ccc(N2CCCCC2)cc1 | 7.4%
Cc1cccc(CCNC(=O)C2CCCN(c3ncnc4c3nc3n4CCCCC3)C2)c1 (stereo not drawn) | 6.5%
Cc1onc(-c2ccccc2)c1C(=O)NC(C)C1CCCO1 (stereo not drawn) | 7.2%
COc1ccc(OCC(=O)N2CCN(C(=O)COc3ccc(Br)cc3)CC2)cc1 | 7.0%

(continued)
SMILES | VDR inh
c1csc(Cn2c(-c3cccs3)nc3ccccc32)c1 | -3.6%
COc1cc([C@H]2OC[C@H]3[C@@H]2CO[C@@H]3c2ccc(O[C@H]3O[C@H](CO)[C@@H](O)[C@H](O)[C@H]3O)c(OC)c2)ccc1O[C@@H]1O[C@H](CO)[C@@H](O)[C@H](O)[C@H]1O | 2.3%
O=C(COC(=O)c1ccco1)NCC1CCCO1 (stereo not drawn) | ?
Clc1ccc(CN2CCC(CNc3ncnc4onc(-c5ccc(Cl)cc5)c34)CC2)cc1 | -5.2%

Screening results deposited in PubChem BioAssay by National Center for Advancing Translational Sciences (NCATS).

An excerpt, so the mix of outcomes need not match the whole.
